Compound activity from PubChem BioAssay.
ClpP mod: qHTS Assay for Activators of ClpP | purified B. subtilis ClpP, FRET peptide cleavage, 20 min | Potency, µM (highest dose often 57.5 µM), inactives show at the highest dose activity change, negative = active | 340,000 tested, 1.9% active | AID 651965, 2013; active = well fitted falling curve with a large enough effect; inconclusive = small, poorly fitted or top-dose-only effect; inactive = no such curve, though single readings can be large or run the other way; note: the source files actives as falling curves though it sought activators and does not explain the sign; nearly all actives have a fitted effect of over 65% in size; many hits overshoot -100%
Target sequence (P80244 whole entry, looked up): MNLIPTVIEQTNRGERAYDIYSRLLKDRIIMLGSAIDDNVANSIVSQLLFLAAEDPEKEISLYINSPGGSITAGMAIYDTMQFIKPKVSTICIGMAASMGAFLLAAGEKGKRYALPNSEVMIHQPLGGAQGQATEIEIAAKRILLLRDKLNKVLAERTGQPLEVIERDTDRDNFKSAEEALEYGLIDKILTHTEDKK
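ClpP 10 microg/mL final, pH 8 Tris/KCl buffer with BSA, glycerol, Tween-20; compound pinned in; FRET-FV substrate; RT 20 min; Ex320/Em430; ΔFRET vs ADEP 5.8 microM, DMSO, no enzyme.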
PINK1 modulator: modulators of PINK1 expression | PINK1 immunofluorescence, high-content cytometry, 24 h | Potency, µM (highest dose often 76.6 µM), inactives show at the highest dose activation (PINK1 increase), usual class: activators | 410,000 tested, 0.2% active; active = well fitted activation curve with a large enough effect; inconclusive = small, poorly fitted or top-dose-only effect; inactive = flat fitted curve, though single readings scatter; cell line not stated here;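 note: % of control where 0% means no effect; nearly all actives have a fitted effect of over 65% in size; a mitochondrial uncoupler was the plate control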
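PINK1 protein level read as immunofluorescence by microplate cytometer in a fixed, stained stable cell line after 24 h exposure to five compound concentrations, with CCCP as control.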
* = called active by the depositor; ? = inconclusive. Potency is the fitted concentration of half-maximal effect.

entry	mol	ClpP mod	PINK1 modulator
1	CCCCNC(=O)CSc1nc2ccccc2nc1Cc1ccccc1	2.2%	5.3%
2	CCc1ccc(C(=O)c2cn(CC(=O)NC3CCCCC3)c3nc(C)ccc3c2=O)cc1	-3.3%	7.7%
3	CC1CCN(C(=O)Nc2ccc3nc(-c4ccco4)c(-c4ccco4)nc3c2)CC1	-4.2%	1.2%
4	COc1ccc2c(c1)-c1nc(NC(=O)c3ccccc3F)sc1CC2	35µM*	3.7%
5	Cc1cc(NC(=O)c2cc(-c3ccc(Cl)cc3)on2)n(-c2ccccc2)n1	1.4%	0.1%
6	O=C(CSc1nc(-c2ccccc2)c2ccccc2n1)Nc1ccc(F)cc1	-0.4%	2.1%
7	Cc1cc(=O)n(CC(=O)N2CCN(c3ccccc3F)CC2)c2c1c(C)nn2C	-20%	0.7%
8	CCOc1cccc(NC(=O)c2sc3nc(-c4ccc(F)cc4)ccc3c2N)c1	-2.1%	7.7%
9	CCCCN(CC)CCCn1cnc2c([nH]c3ccc(Cl)cc32)c1=O	-14%	-3.2%
10	Cc1ccc(-c2cc(-c3ccc4c(c3)NC(=O)CO4)nc3c2COc2ccccc2-3)cc1	-11%	1.2%
11	Cc1cccc(OCC(=O)Nc2cc(-c3nc4cc(Cl)ccc4o3)ccc2C)c1	3.9%	-0.7%
12	Cc1cccc(C)c1NC(=O)Cn1c(=O)n(CCC(=O)NCc2ccc3c(c2)OCO3)c(=O)c2sccc21	-0.9%	0.7%
13	COc1ccc(CN(Cc2ccccc2)C(=O)c2ccco2)cc1COc1ccc(NC(C)=O)cc1	-0.1%	-0.2%
14	O=C(NCCc1ccc(F)cc1)C(=O)NCC(c1ccco1)S(=O)(=O)c1cccs1 (stereo not given)	-5.9%	-0.2%
15	COC(=O)C(CCSC)NC(=O)C1CCN(c2ncnc3c2nc2n3CCCCC2)CC1 (stereo not given)	0.0%	3.1%
16	Cc1ccc(NC(=O)CSc2nc(=O)n(Cc3ccccn3)c3c2CCC3)cc1F	-7.5%	-1.4%
17	O=C(c1cccs1)c1cn(CCOc2ccc(Cl)cc2)c2ccccc12	-21%	1.0%
18	CC(C)(C)C(=O)OCc1cc(=O)n2nc(C3CCCCC3)sc2n1	-5.4%	-0.6%
19	COc1ccc(N2CCN(C(=O)c3cc4c(=O)n(Cc5cccnc5)ccc4nc3C)CC2)cc1	-27%	-1.4%
20	Clc1ccccc1Nc1ncnc2c1nc1n2CCCCC1	-6.7%	1.0%
21	CCOc1ccc(CNC(=O)c2cnc3sc(N4CCC(C)CC4)nn3c2=O)cc1OC	-15%	-0.4%
22	CCOc1cc(C2c3c(oc4ccccc4c3=O)C(=O)N2Cc2ccccc2Cl)ccc1O (stereo not given)	-3.3%	-0.9%
23	COc1ccc(-c2noc(-c3ccc(NCC4CCCO4)c([N+](=O)[O-])c3)n2)cc1 (stereo not given)	0.9%	?
24	O=C(CCl)c1ccc2c(c1)CCCC2	-0.1%	0.8%
25	Cc1ccc(C)c(NC(=O)N(C)CCc2c(C)nn(C)c2C)c1	2.9%	2.8%
26	COc1cc2[nH]c(=O)n(CCCC(=O)N(C)Cc3ccccc3)c(=O)c2cc1OC	4.7%	-0.6%
27	COc1ccccc1CNC(=O)c1c(O)nc2cc(C)ccn2c1=O	-4.0%	0.5%
28	COc1ccccc1OC(C)C(=O)Nc1cccc(-c2nc3ccccc3o2)c1 (stereo not given)	?	-0.8%
29	Cc1c(NC(=O)c2cccs2)cccc1-c1nc2cc(Cl)ccc2o1	?	6.4%
30	CCCCOc1ccc(CNC(=O)c2ccc(-c3nc(CN4CCc5ccccc54)c(C)o3)cc2)cc1	-5.6%	11%
31	O=C(CSc1nccn1-c1ccc(Cl)cc1)Nc1cccc2ccccc12	-0.2%	20%
32	Cc1cc(C)cc(NC(=O)C2CCN(S(=O)(=O)c3ccc4c(c3)oc(=O)n4C)CC2)c1	-15%	1.3%
33	COc1ccc(NC(=O)c2c(NCc3ccc(C)o3)sc3c2CCCCC3)c(OC)c1	0.9%	-0.3%
34	O=C1Nc2cc(Cl)ccc2Oc2cc(Oc3ccccc3)ccc21	-4.7%	3.7%
35	O=C(c1ccccc1)c1cn(Cc2ccc(F)cc2)c2ccccc2c1=O	-0.2%	4.6%
36	CCCCNC(=O)CSc1nc2ccccc2nc1Cc1ccc(Cl)cc1	-1.1%	2.2%
37	CCCCCCN1CCN(C2CN(Cc3cn(Cc4ccc(Cl)cc4)nn3)S(=O)(=O)C2)CC1 (stereo not given)	2.1%	-0.6%
38	Cc1csc2nc(COC(=O)c3ccccc3NC(=O)COc3ccccc3F)cc(=O)n12	-0.6%	-0.2%
39	CCCOc1cccc(C(=O)N(Cc2sccc2C)C2CCS(=O)(=O)C2)c1 (stereo not given)	1.5%	-0.7%
40	CC1CCCCN1S(=O)(=O)c1ccc2c(c1)oc(=O)n2CC(=O)Nc1ccc(Cl)cc1 (stereo not given)	5.2%	-0.9%
41	Cc1ccc2oc(-c3ccc(NC(=O)COc4ccccc4)cc3O)nc2c1	4.1%	5.2%
42	Cc1nc2c(-c3ccccc3)c(C)nn2c(C)c1CCC(=O)NC(C)c1ccccc1 (stereo not given)	1.0%	1.0%
43	COc1cccc(N2CCN(C(=O)c3cnc4c(-c5ccccc5)c(C)nn4c3C)CC2)c1	-0.9%	2.5%
44	CCOc1ccc(NC(=O)c2sc3nc4n(c(=O)c3c2C)CCCC4)cc1	1.0%	-0.4%
45	Cc1cc(C)n(-c2nc(C)c(C)c(=O)n2CC(=O)Nc2ccc([N+](=O)[O-])cc2)n1	-0.3%	1.4%
46	O=C(COC(=O)c1cc(-c2cccs2)nc2ccccc12)c1ccccc1	?	3.3%
47	COc1ccccc1C1C(C(N)=O)=C(C)Nc2nc(SCc3ccccc3F)nn21 (stereo not given)	-17%	1.6%
48	O=C(CS(=O)(=O)c1cccc2nsnc12)Nc1ccc(F)cc1	-1.1%	-3.3%
49	CCC(=O)N1c2ccc(S(=O)(=O)CCC(=O)N3CCN(c4ccc(F)cc4)CC3)cc2CC1C (stereo not given)	-1.1%	0.9%
50	COc1ccc(Nc2oc(-c3ccc(COc4ccccc4C)o3)nc2C#N)cc1	4.4%	13%
51	CCc1ccc(CNC(=O)C2Cc3cc(S(=O)(=O)N4CCCCCC4)ccc3N2C(C)=O)cc1 (stereo not given)	1.5%	0.8%
52	Cc1ccc(S(=O)(=O)N(CC(=O)Nc2ccc3c(c2)OCO3)c2ccc(C)c(Cl)c2)cc1	-3.0%	1.4%
53	O=C(C[n+]1ccccc1Br)c1ccc2c(c1)CCCC2	-12%	-0.6%
54	Cc1sc2ncn(CC(=O)N3CCN(c4ccccc4)CC3)c(=O)c2c1S(=O)(=O)N1CCN(c2ncccn2)CC1	-8.2%	1.6%
55	COC(=O)Cc1c(C)c2cc3c(c(C)c2oc1=O)OCN(CCc1ccccc1F)C3	4.2%	0.6%
56	O=C(NCc1cccs1)c1ccc(CSc2nc3ccncc3n2Cc2cccc(F)c2)cc1	-12%	2.1%
57	O=C(CSc1nccn1Cc1ccc(Cl)cc1)NC1CCCC1	1.2%	-2.2%
58	Cc1ccc(-c2cc(C(F)(F)F)c(C#N)c(SCC(=O)Nc3ccccc3)n2)cc1	40%	-0.3%
59	O=C(CN1C(=O)C2CCCCN2c2ccc(C(=O)N3CCCC3)cc21)NCc1ccc(F)cc1 (stereo not given)	1.8%	4.3%
60	O=C1NC[C@H](CCCCN2C[C@H](Cc3ccc(O)cc3)N(CCc3ccccc3)C(=O)C2=O)N(CCC2CCCCC2)C1=O	2.3%	0.9%

Another view of part of the listing above.
Values run as follows: ClpP mod, PINK1 modulator
39) CCCOc1cccc(C(=O)N(Cc2sccc2C)C2CCS(=O)(=O)C2)c1 (stereo not given)
→ 1.5%, -0.7%
40) CC1CCCCN1S(=O)(=O)c1ccc2c(c1)oc(=O)n2CC(=O)Nc1ccc(Cl)cc1 (stereo not given)
→ 5.2%, -0.9%
41) Cc1ccc2oc(-c3ccc(NC(=O)COc4ccccc4)cc3O)nc2c1
→ 4.1%, 5.2%
42) Cc1nc2c(-c3ccccc3)c(C)nn2c(C)c1CCC(=O)NC(C)c1ccccc1 (stereo not given)
→ 1.0%, 1.0%
43) COc1cccc(N2CCN(C(=O)c3cnc4c(-c5ccccc5)c(C)nn4c3C)CC2)c1
→ -0.9%, 2.5%
44) CCOc1ccc(NC(=O)c2sc3nc4n(c(=O)c3c2C)CCCC4)cc1
→ 1.0%, -0.4%
45) Cc1cc(C)n(-c2nc(C)c(C)c(=O)n2CC(=O)Nc2ccc([N+](=O)[O-])cc2)n1
→ -0.3%, 1.4%

3 entries out of the list above, ordered by their value in PINK1 modulator, highest first.
No. | compound | PINK1 modulator
54 | Cc1sc2ncn(CC(=O)N3CCN(c4ccccc4)CC3)c(=O)c2c1S(=O)(=O)N1CCN(c2ncccn2)CC1 | 1.6%
45 | Cc1cc(C)n(-c2nc(C)c(C)c(=O)n2CC(=O)Nc2ccc([N+](=O)[O-])cc2)n1 | 1.4%
38 | Cc1csc2nc(COC(=O)c3ccccc3NC(=O)COc3ccccc3F)cc(=O)n12 | -0.2%

More records follow.
entry	mol	ClpP mod	PINK1 modulator
61	CCCCCc1c(-c2cccc(Br)c2)ncn1CCc1ccccc1OC	-26%	-1.1%
62	CCc1ccccc1Nc1sc(C(=O)c2ccccc2)c(N)c1S(=O)(=O)c1ccccc1	-22%	-1.2%
63	CCOC(=O)c1c(NC(=O)c2cc(-c3ccc(Br)cc3)on2)sc(C)c1C	-1.0%	0.0%
64	COc1ccc(CN(Cc2ccccc2)C(=O)c2ccc(NC(C)=O)cc2)cc1COc1ccc(NC(C)=O)cc1	-1.7%	0.5%
65	O=C(CC1(O)C(=O)N(CCc2ccccc2)c2ccc(Br)cc21)c1ccccc1O (stereo not given)	-7.2%	4.4%
66	CCN(CC)CCCNC(=O)c1ccc(Cn2c(SCc3ccccc3)nc3cccnc32)cc1	4.4%	-0.3%
67	C#CCNC(=O)C[C@@H]1C[C@@]2(C(=O)OCC)CCC=C2N(CCC2=CCCCC2)C1=O	-4.3%	-0.9%
68	Cc1ccc(Cn2cnc3c(oc4ccccc43)c2=O)cc1	-7.3%	0.2%
69	O=c1[nH]c(=O)c2ncn(C3OC(CO)C(O)C3O)c2[nH]1 (stereo not given)	-7.4%	1.3%
70	O=C(CSc1nc2nccnc2c(=O)n1CCc1c[nH]c2ccccc12)Nc1ccc(F)cc1	0.2%	1.8%
71	Cc1ccc(CCNC(=O)c2cnc3c(-c4ccc(F)cc4)c(C)nn3c2C)cc1	1.6%	1.4%
72	O=c1c2cc3c(cc2n(Cc2ccccc2)c(=O)n1Cc1nc(-c2ccccc2)no1)OCO3	?	1.5%
73	COc1ccc(-c2onc(C)c2C)cc1S(=O)(=O)NCC(C)c1ccccc1 (stereo not given)	-1.8%	2.6%
74	CCNC(=O)c1ccc(CSc2nc3ccncc3n2Cc2ccc(F)cc2)cc1	-3.1%	0.9%
75	Cc1ccc(NC(=O)CC(c2ccc(F)cc2)N2Cc3ccccc3C2=O)cc1C (stereo not given)	-3.5%	2.0%
76	COc1ccc(C)cc1-n1c(SCC(=O)NCc2ccco2)nc2c([nH]c3ccccc32)c1=O	?	5.1%
77	COc1cccc(-c2nc(SCC(=O)NCc3ccccc3)c3c(=O)n(C)c(=O)n(C)c3n2)c1	-0.7%	4.0%
78	COc1ccc(C)cc1NC(=O)CN(C)S(=O)(=O)c1ccc2[nH]c(=O)oc2c1	-0.5%	-0.6%
79	O=C1OC(C(=O)Nc2ccc(Cl)c(C(F)(F)F)c2)Cc2ccccc21 (stereo not given)	-5.0%	6.6%
80	Oc1ccc(-c2nc3ccc(Cl)cn3c2Nc2ccc3c(c2)OCO3)cc1	-5.1%	-3.6%
81	COc1ccc(S(=O)(=O)c2c(Nc3ccc(F)cc3)sc(C(=O)c3ccc(C)cc3C)c2N)cc1	-2.3%	4.8%
82	COc1ccc(OC)c(NC(=O)C2CCCN(S(=O)(=O)c3ccc4c(c3)CCCC(=O)N4)C2)c1 (stereo not given)	1.7%	-0.3%
83	COC(=O)c1ccccc1NC(=O)Cn1c(=O)nc(-c2ccccc2)c2cc(Cl)ccc21	-16%	-0.4%
84	COc1cccc(CNC(=O)Cc2c(C)c3cc4c(C)coc4cc3oc2=O)c1	4.7%	0.1%
85	Cc1ccc(OCC(=O)Nc2ccc(OCc3cc(=O)n4cccc(C)c4n3)cc2)cc1C	-16%	0.8%
86	O=C(CCOc1ccccc1)N(Cc1cccnc1)c1nc2c(F)cccc2s1	-2.9%	11%
87	CC(C)c1nnc(NC(=O)C2CCN(C(=O)C(C)(C)C)CC2)s1	-0.8%	0.7%
88	COc1ccc(OC)c(S(=O)(=O)N2Cc3ccccc3CC2C(=O)Nc2ccc(Cl)cc2)c1 (stereo not given)	-11%	1.2%
89	Cc1cccc(Oc2coc3cc(OCC(=O)NC4CCCCC4)ccc3c2=O)c1	0.0%	-0.4%
90	COc1ccccc1CNC(=O)CCC1N=C2c3ccccc3N=C(SCc3ccc(Cl)cc3)N2C1=O (stereo not given)	?	0.7%
91	Cc1cc(C)n2c(NC3CCCC3)c(-c3cc4ccccc4o3)nc2n1	-9.7%	20%
92	CN1CCN(C(c2ccc(Cl)cc2Cl)c2sc3nc(-c4ccco4)nn3c2O)CC1 (stereo not given)	-1.7%	3.0%

These rows are one share of the data; count on the stated rates, not on these rows.
